Screening data as filed in PubChem BioAssay.
FEN1 inh – human FEN1 inhibition; AID 588795; 0.35% of 390,000 active; Potency, µM (series often up to 114 µM), inactives show top-dose activity change, negative = inhibition, usual class: inhibitors; Recombinant FEN1 flap cleavage, fluorescence, 15 min; P39748; also: nearly all actives have a fitted effect of over 65% in size
Target sequence (P39748 whole entry, looked up): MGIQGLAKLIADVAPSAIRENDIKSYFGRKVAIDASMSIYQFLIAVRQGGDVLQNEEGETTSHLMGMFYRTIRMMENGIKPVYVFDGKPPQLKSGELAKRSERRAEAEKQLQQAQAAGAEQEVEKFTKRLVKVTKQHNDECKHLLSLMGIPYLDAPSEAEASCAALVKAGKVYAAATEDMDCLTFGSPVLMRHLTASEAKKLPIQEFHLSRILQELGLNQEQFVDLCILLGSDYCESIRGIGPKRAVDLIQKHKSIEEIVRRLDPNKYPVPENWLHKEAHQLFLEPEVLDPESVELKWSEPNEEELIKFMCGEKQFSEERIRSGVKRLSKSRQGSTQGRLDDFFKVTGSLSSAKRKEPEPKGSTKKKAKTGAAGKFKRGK
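In this screen, 50 nM flap DNA substrate was added to 10 nM FEN1 pretreated with compound for 15 min at room temperature; cleavage was followed with reads at 0 and 15 min, and Hill fitting gave concentration–response parameters.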
TDP1 block – TDP1 (human) enzyme inhibition; Q9NUW8; recombinant TDP1, AlphaScreen DNA substrate cleavage; Potency, µM (highest dose often 130 µM), inactives show top-dose activity change, negative = inhibition, hits mostly inhibitors; 0.28% of 350,000 active; also: nearly all actives have a fitted effect of over 40% in size
Target sequence (Q9NUW8 whole entry, looked up): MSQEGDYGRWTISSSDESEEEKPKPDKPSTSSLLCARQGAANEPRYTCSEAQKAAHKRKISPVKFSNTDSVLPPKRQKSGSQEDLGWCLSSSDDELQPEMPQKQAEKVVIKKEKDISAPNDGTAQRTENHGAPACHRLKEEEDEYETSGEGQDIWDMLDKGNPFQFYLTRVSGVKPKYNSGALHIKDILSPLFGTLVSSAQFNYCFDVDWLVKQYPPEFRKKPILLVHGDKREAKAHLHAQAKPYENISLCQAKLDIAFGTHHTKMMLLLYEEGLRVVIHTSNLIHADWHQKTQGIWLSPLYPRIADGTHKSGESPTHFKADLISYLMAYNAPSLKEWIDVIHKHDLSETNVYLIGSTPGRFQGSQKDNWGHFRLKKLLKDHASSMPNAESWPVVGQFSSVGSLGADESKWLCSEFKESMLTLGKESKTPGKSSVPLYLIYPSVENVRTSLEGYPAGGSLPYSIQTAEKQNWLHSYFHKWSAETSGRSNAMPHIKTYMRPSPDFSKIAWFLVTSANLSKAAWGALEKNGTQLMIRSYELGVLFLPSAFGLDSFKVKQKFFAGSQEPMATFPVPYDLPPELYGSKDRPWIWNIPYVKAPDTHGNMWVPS
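Tdp1 1 nM final; 15 min RT w/ cpd; substrate 15 nM, 5 min; beads 10 ug/ml, 10 min; AlphaScreen read. Neg ctrl: no enzyme.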
* = called active by the depositor. Calls follow the shape of the dose curve; as a rule, active = well fitted inhibition curve with a large enough effect; inconclusive = small, poorly fitted or top-dose-only effect; inactive = no such curve, though single readings can be large or run the other way. % is scaled to controls: 0 for no effect and ±100 for the full control effect; potency is read from the fitted curve at half-maximal effect. An excerpt; most or all hits stand in other tables.

COc1ccc(F)cc1S(=O)(=O)N1CCC2(CC1)OCCN2S(=O)(=O)c1ccccc1 was read as FEN1 inh 2.5% and TDP1 block -0.6%.
`O=C1OC(NCc2cccnc2)(c2ccc(Cl)cc2)c2ccccc21` (centres undefined) gave FEN1 inh 1.8% and TDP1 block -10.3%.
Screening O=S(=O)(c1ccc(Cl)nc1)N1CCc2ccccc21 returned FEN1 inh -6.9% and TDP1 block -1.4%.
For COc1ccccc1-n1cc(-c2ccccc2)c2c(=S)nc[nH]c21 the results were FEN1 inh 6.6% and TDP1 block 9.6%.
For Cc1n[nH]c(C)c1CCCCOc1ccc([N+](=O)[O-])cc1 the results were FEN1 inh 8.8%.
`CCOC(=O)C(Cc1ccccc1)C(=O)c1ccco1` (centres undefined) gave FEN1 inh -2.1%.
Screening CCCCN(C(=O)CC(c1ccccc1)c1ccccc1)c1c(N)n(CCC)c(=O)[nH]c1=O returned FEN1 inh -1.9% and TDP1 block 2.7%.
For O=C(Nc1cccc2ccccc12)C12CC3CC(C1)CC(n1cnc([N+](=O)[O-])n1)(C3)C2 the results were FEN1 inh -1.2% and TDP1 block 3.9%.
Screening Cc1ccc2nc(SCC(=O)Nc3ccc4sc(C)nc4c3)c(C#N)cc2c1 returned FEN1 inh -9.6% and TDP1 block 2.6%.
For COC(CN(C)C(=O)C1CCC(CNS(=O)(=O)c2ccccc2)CC1)OC (centres undefined) the results were FEN1 inh -2.5%.
For CC1(C)CC(=O)C/C(=N/NC(=O)C2CCN(S(=O)(=O)c3cccs3)CC2)C1 the results were FEN1 inh 22.1% and TDP1 block 4.2%.
For Cc1cc(F)c(F)cc1C(=O)N1CCCC1 the results were FEN1 inh 3.6% and TDP1 block 5.6%.
`COc1ccc(OC)c(/C=N/NC(=O)c2cnccn2)c1` gave FEN1 inh -2.5% and TDP1 block 6.8%.
`O=S(=O)(c1ccc2nc(-c3ccccc3)[nH]c2c1)N1CCN(c2cccc(Cl)c2)CC1` gave FEN1 inh -0.4% and TDP1 block 2.6%.
Screening CCc1ccc(OCCOCC(O)CNC(C)(C)C)cc1 (centres undefined) returned FEN1 inh 10.6% and TDP1 block 5.3%.
`Cc1ccc(-n2nnc3c(=O)n(CC(=O)c4ccccc4)cnc32)cc1` gave FEN1 inh -4.3% and TDP1 block 1.1%.
`COc1ccccc1CNC(=O)CCCn1nc(C)n2ccnc2c1=O` gave FEN1 inh -0.8%.
`Cc1c(-c2nc(-c3cccnc3)no2)cccc1[N+](=O)[O-]` gave FEN1 inh 13.4% and TDP1 block 5.4%.
Screening C=CCN1C(=O)/C(=C/c2ccc(O)c(OC)c2)S/C1=N/c1nccs1 returned FEN1 inh inconclusive and TDP1 block 0.0%.
Screening Cc1ccc(S(=O)(=O)C(c2ccccc2)c2c(C)noc2C)cc1 (centres undefined) returned FEN1 inh -5.0% and TDP1 block -2.6%.

Retrieved by structure from above (two):
Screening Cc1ccc2nc(SCC(=O)Nc3ccc4sc(C)nc4c3)c(C#N)cc2c1 returned FEN1 inh -9.6% and TDP1 block 2.6%.
Screening C=CCN1C(=O)/C(=C/c2ccc(O)c(OC)c2)S/C1=N/c1nccs1 returned FEN1 inh inconclusive and TDP1 block 0.0%.

(listing goes on)
Screening COc1ccc(N2CCN(C3CCCN(C(=O)C4=C(C)OCCO4)C3)CC2)cc1 (centres undefined) returned FEN1 inh -7.0% and TDP1 block 2.8%.
For O=C(NCCCSc1ccccc1)c1ccc(=O)[nH]c1 the results were FEN1 inh -1.2% and TDP1 block 1.7%.
`CCOc1ncccc1C(=O)OCC(=O)Nc1ccc(C)c(S(=O)(=O)N(C)C)c1` gave FEN1 inh -13.8% and TDP1 block 3.7%.
For CCOC(=O)C1(Cc2ccccc2C)CCCN(Cc2cn(C)nc2C)C1 (centres undefined) the results were FEN1 inh -3.1%.
`Cc1nn(CCCC(=O)Nc2cc(Oc3ccc(F)cc3)cc([N+](=O)[O-])c2)c(C)c1[N+](=O)[O-]` gave FEN1 inh 6.8% and TDP1 block 0.0%.
Screening CC1CCCC(C)N1C(=O)COc1ccc(C(=O)N/N=C/c2ccc(C(=O)O)cc2)cc1 (centres undefined) returned FEN1 inh 15.3% and TDP1 block 5.3%.
`CC(C)(C)N(CC#CCC(O)(c1ccccc1)c1ccccc1)CCO` gave FEN1 inh -14.8% and TDP1 block 0.0%.
Cc1ccc(/C=C2/Sc3ccccc3N(CC(=O)NCCCOC(C)C)C2=O)cc1 was read as FEN1 inh -3.1% and TDP1 block 2.7%.
Screening Cc1c(Cl)cccc1NC(=O)CCC(=O)N/N=C/c1ccco1 returned FEN1 inh 4.6% and TDP1 block 3.3%.
`COc1ccc(Cc2nnnn2CC(=O)O)cc1` gave FEN1 inh -9.4% and TDP1 block 2.9%.
Screening N/C(Cc1cccs1)=N\OC(=O)COc1ccc(Br)cc1 returned FEN1 inh -16.5% and TDP1 block inconclusive.
Screening O=C(NNc1nc2c(F)cccc2s1)c1ccc(F)cc1 returned FEN1 inh -8.7% and TDP1 block 2.3%.
For CCN(CC)C(=O)c1cc2c(=O)c3cc(F)ccc3oc2nc1C the results were FEN1 inh -9.1% and TDP1 block -5.4%.
COc1ccc(/C=C(/NC(=O)c2ccc(OC)c(OC)c2)C(=O)NCCc2c[nH]c3ccccc23)cc1 was read as FEN1 inh -2.7% and TDP1 block 5.3%.
Cc1sc(NC(=O)CSC2=NCCS2)nc1-c1ccccc1 was read as FEN1 inh -7.0% and TDP1 block 3.5%.
For Cc1ccc(C)c(N2N=C(C(=O)Nc3ccc(N4CCOCC4)cc3)CCC2=O)c1 the results were FEN1 inh 1.5% and TDP1 block 1.7%.
CCOC(=O)c1ccc(NC(=O)CNS(=O)(=O)c2ccccc2)cc1 was read as FEN1 inh -3.0% and TDP1 block 6.6%.
`CCCCCCCC1(C)NC(=O)N(c2ccccc2)N1` (centres undefined) gave FEN1 inh -21.1% and TDP1 block -5.9%.
Screening COCCOC(=O)c1c(C)oc2ccc(NS(=O)(=O)c3ccc(C)cc3)cc12 returned FEN1 inh -8.6% and TDP1 block 4.3%.
Screening CCc1cc2c(=O)n3c(nc2s1)-c1[nH]c2ccc(OC)cc2c1CC3 returned FEN1 inh 1.0% and TDP1 block -2.7%.

Entries above with a nitro group on carbon:
For Cc1n[nH]c(C)c1CCCCOc1ccc([N+](=O)[O-])cc1 the results were FEN1 inh 8.8%.
For O=C(Nc1cccc2ccccc12)C12CC3CC(C1)CC(n1cnc([N+](=O)[O-])n1)(C3)C2 the results were FEN1 inh -1.2% and TDP1 block 3.9%.
`Cc1c(-c2nc(-c3cccnc3)no2)cccc1[N+](=O)[O-]` gave FEN1 inh 13.4% and TDP1 block 5.4%.
`Cc1nn(CCCC(=O)Nc2cc(Oc3ccc(F)cc3)cc([N+](=O)[O-])c2)c(C)c1[N+](=O)[O-]` gave FEN1 inh 6.8% and TDP1 block 0.0%.

The list continues:
For Cc1ccccc1NC(=O)NC1(C(=O)N2CCN(C)CC2)CCCCC1 the results were FEN1 inh 19.7% and TDP1 block 10.7%.
Screening COc1ccc(Cl)cc1Nc1nc(NCCO)nc(N2CCCC2)n1 returned FEN1 inh -7.7% and TDP1 block 0.0%.
Cc1cc(C)c(OCCCCCNCCO)c(C)c1 was read as FEN1 inh -0.2% and TDP1 block 0.0%.
Screening COc1ccc(CCNC(=O)C2CCCN(Cc3nc(-c4ccccc4C)oc3C)C2)cc1OC (centres undefined) returned FEN1 inh 1.4% and TDP1 block -2.9%.
`CC1(N2CCCCC2)C(=O)c2ccccc2C1=O` gave FEN1 inh 0.2% and TDP1 block 2.6%.
`CCc1cc2c(NCc3ccccc3)nc(C)nc2s1` gave FEN1 inh 0.6%.
Screening O=C(CN1c2cccc3cccc(c23)S1(=O)=O)Nc1ccc(S(=O)(=O)N2CCOCC2)cc1 returned FEN1 inh -6.6% and TDP1 block -5.6%.
Screening CN(CCCC(=O)N1CCCC(C(N)=O)C1)S(=O)(=O)c1ccc(F)cc1 (centres undefined) returned FEN1 inh 2.1%.
`CCN(C(=O)c1cnc2scc(C)n2c1=O)c1ccccc1C` gave FEN1 inh 15.4% and TDP1 block 5.2%.
Oc1ccc(C2C(c3ccccc3)=NN=C(c3ccccc3F)N2O)c(O)c1 (centres undefined) was read as FEN1 inh -2.5% and TDP1 block 3.8%.
CC(C(=O)O)n1c(-c2ccn[nH]2)n[nH]c1=S (centres undefined) was read as FEN1 inh 5.9% and TDP1 block 0.0%.
Screening Cc1ccc(CNC(=O)c2ccccc2NS(C)(=O)=O)cc1 returned FEN1 inh 0.6% and TDP1 block 6.9%.
Screening Clc1nc2c(ccc3ccccc32)[nH]1 returned FEN1 inh -8.1% and TDP1 block 4.8%.
OC(COC(c1ccc(F)cc1)c1ccc(F)cc1)CN1CCCC(C(F)(F)F)C1 (centres undefined) was read as FEN1 inh -12.9%.
Cc1ccc(C)c(NCC(O)c2ccccc2)c1 (centres undefined) was read as FEN1 inh -2.7% and TDP1 block 2.4%.
`OCCC1CN(C2CCN(c3ccccc3F)CC2)CCN1Cc1ccccc1` (centres undefined) gave FEN1 inh 4.3% and TDP1 block 6.1%.
`CC(C)Cn1c(-c2nn(C)cc2Cl)n[nH]c1=S` gave FEN1 inh 3.7% and TDP1 block 1.9%.
For O=C(c1ccc(Cn2cc([N+](=O)[O-])cn2)o1)N1CCCCCC1 the results were FEN1 inh -9.1% and TDP1 block 5.0%.
CCN1C(=O)c2ccccc2S(=O)c2ccc(C(=O)NCc3ccccn3)cc21 (centres undefined) was read as FEN1 inh -1.9% and TDP1 block 2.6%.
Cn1c(-c2ccco2)nc2cc3ccccc3cc21 was read as FEN1 inh -23.3% and TDP1 block -5.9%.
For C[C@H](NC(=O)C1CCN(S(=O)(=O)c2ccccc2)CC1)C(=O)NCc1ccc(F)cc1 the results were FEN1 inh -17.2% and TDP1 block -0.5%.
Screening COc1ccc2c(c1)CCc1cc(C(=O)N3CCN(c4ccc(N5CCOCC5)nn4)CC3)sc1-2 returned FEN1 inh -21.2% and TDP1 block 7.6%.
For C#CCSc1nnc(-c2c[nH]c3ccccc23)n1C the results were FEN1 inh 5.7% and TDP1 block 3.1%.
COCC(=O)N(Cc1cc2cc(C)ccc2[nH]c1=O)c1ccc(C)c(C)c1 was read as FEN1 inh -0.5%.
CN1CCN(c2ccc(Cl)cc2NC(=O)CCN2C(=O)c3ccccc3C2=O)CC1 was read as FEN1 inh 10.7% and TDP1 block 5.3%.
Cc1cc(C)cc(N2CC(C(=O)O)CC2=O)c1 (centres undefined) was read as FEN1 inh 2.6% and TDP1 block 2.3%.
`COc1cccc(NC(=O)Nc2ccc(Br)cn2)c1` gave FEN1 inh 14.2% and TDP1 block 0.0%.
CC(C(=O)N1CCN(Cc2ccccc2)CC1)c1ccc([N+](=O)[O-])cc1 (centres undefined) was read as FEN1 inh -15.7% and TDP1 block 3.1%.
Screening CC(C)Sc1cc(N2CCOCC2)nc(-c2ccccc2)n1 returned FEN1 inh -3.0% and TDP1 block -5.1%.
Screening N/C(=N\OC(=O)c1ccc(Cl)c([N+](=O)[O-])c1)c1ccccc1 returned FEN1 inh 2.5%.
`O=C(C1CCCN(S(=O)(=O)c2cnc[nH]2)C1)N(CCc1ccccc1)Cc1ccccc1` (centres undefined) gave FEN1 inh 15.9% and TDP1 block -2.9%.
CCCC(=O)Nc1ccc(C(=O)NN=C(C2CC2)C2CC2)cc1 was read as FEN1 inh 0.3% and TDP1 block 0.0%.
O=C(COc1ccc2c3c(c(=O)oc2c1)CCC3)NCCCN1CCCC1=O was read as FEN1 inh -4.8% and TDP1 block 1.8%.
Screening Cc1cc2nc(-c3ccc(=O)[nH]c3)n(C)c2cc1C returned FEN1 inh 4.0%.
Screening CC(C)CCC(C)N=Cc1c(O)n(Cc2ccccc2)c(=O)c2ccccc12 (centres undefined) returned FEN1 inh -10.9% and TDP1 block 4.0%.
`Cn1c(=O)oc2cc(S(=O)(=O)NCCc3ccccc3)ccc21` gave FEN1 inh 1.2% and TDP1 block 3.0%.
COc1cccc(C(=O)NCC(=O)OCC(=O)c2ccccc2)c1 was read as FEN1 inh 0.5% and TDP1 block 1.1%.
Screening COC(=O)c1ccc2c(=O)n(CCCCCC(=O)NCc3ccccn3)c(=O)[nH]c2c1 returned FEN1 inh -4.8% and TDP1 block -3.6%.
For CCCOc1ccccc1C(=O)NC(CO)C(=O)O (centres undefined) the results were FEN1 inh -0.4% and TDP1 block 0.0%.
For CC1CCCN(C(=O)CSc2nnc3n(C4CCCC4)c(=O)c4ccccc4n23)C1 (centres undefined) the results were FEN1 inh -21.1% and TDP1 block -3.1%.

Some of these compounds in order of count of non-hydrogen atoms, descending.
Screening COc1ccc2c(c1)CCc1cc(C(=O)N3CCN(c4ccc(N5CCOCC5)nn4)CC3)sc1-2 returned FEN1 inh -21.2% and TDP1 block 7.6%.
Screening CC(C)CCC(C)N=Cc1c(O)n(Cc2ccccc2)c(=O)c2ccccc12 (centres undefined) returned FEN1 inh -10.9% and TDP1 block 4.0%.
Cc1cc(C)cc(N2CC(C(=O)O)CC2=O)c1 (centres undefined) was read as FEN1 inh 2.6% and TDP1 block 2.3%.

The list goes on:
For COc1ccccc1CNC(=O)N1CCN(c2ccccc2)CC1 the results were FEN1 inh 11.5% and TDP1 block -7.8%.
For CCN(CC(=O)Nc1ccc(NC(C)=O)cc1)C(=O)COc1ccc(C(=O)c2ccccc2)cc1 the results were FEN1 inh -8.1% and TDP1 block 5.3%.
For C[N+]12CCCCC1C(COC(=O)c1ccc3c(c1)OCO3)CCC2 (centres undefined) the results were FEN1 inh 3.2% and TDP1 block 5.8%.
Screening Fc1ccc(N2CCN(c3ncnc4nc[nH]c34)CC2)cc1 returned FEN1 inh 32.0% and TDP1 block 3.3%.
